eIF4H inh: inhibitors of RNA binding by human eIF4H; Q15056; eIF4H fluorescence polarization binding assay; inhibition, % at 35 µM; 0.94% of 290,000 active;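 active means 50% or more with normal probe brightness, or confirmed in later tests; about a fifth of its hits are not listed in these tables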;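 further: calls also rest on retests at 20 µM and on dose response follow-up; 0% = protein and probe with vehicle and 100% = probe without protein; strong numbers were not always called active; many hits fall short of the cut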
MT1-MMP act inh: blocks activation of human MT1-MMP. P50281. HT1080 RFP-PRO-GFP cells, GFP/RFP ratio fluorescence, overnight; percent of plate control window, DMSO zero. GFP/RFP ratio change, % at 20 µM. 0.061% of 360,000 active;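 active means GFP/RFP ratio change of at least 30% with cell ATP level not reduced by more than half and red fluorescence within 50% of control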; further: strong numbers were not always called active
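Compound: 20 µM single dose, 1% DMSO / System: HT1080 RFP-PRO-GFP cells / Controls: DMSO and RFP-L50D-GFP cell wells / Read-out basis: GFP/RFP fluorescence ratio / Schedule: overnight compound exposure at 37 °C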
PABP FP inh: blocks human PABP binding to poly(A) RNA | fluorescence polarization | inhibition, % at 35 µM | P11940 | 1% of 290,000 active | AID 2014;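 active means 50% or more with normal probe brightness, or confirmed in later tests; about a fifth of its hits are not listed in these tables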;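 further: calls also rest on retests at 20 µM and on dose response follow-up; controls were probe without protein and protein plus probe with vehicle; some compounds called inactive have numbers as strong as hits; many hits fall short of the cut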
Target sequence (P11940 whole entry, looked up): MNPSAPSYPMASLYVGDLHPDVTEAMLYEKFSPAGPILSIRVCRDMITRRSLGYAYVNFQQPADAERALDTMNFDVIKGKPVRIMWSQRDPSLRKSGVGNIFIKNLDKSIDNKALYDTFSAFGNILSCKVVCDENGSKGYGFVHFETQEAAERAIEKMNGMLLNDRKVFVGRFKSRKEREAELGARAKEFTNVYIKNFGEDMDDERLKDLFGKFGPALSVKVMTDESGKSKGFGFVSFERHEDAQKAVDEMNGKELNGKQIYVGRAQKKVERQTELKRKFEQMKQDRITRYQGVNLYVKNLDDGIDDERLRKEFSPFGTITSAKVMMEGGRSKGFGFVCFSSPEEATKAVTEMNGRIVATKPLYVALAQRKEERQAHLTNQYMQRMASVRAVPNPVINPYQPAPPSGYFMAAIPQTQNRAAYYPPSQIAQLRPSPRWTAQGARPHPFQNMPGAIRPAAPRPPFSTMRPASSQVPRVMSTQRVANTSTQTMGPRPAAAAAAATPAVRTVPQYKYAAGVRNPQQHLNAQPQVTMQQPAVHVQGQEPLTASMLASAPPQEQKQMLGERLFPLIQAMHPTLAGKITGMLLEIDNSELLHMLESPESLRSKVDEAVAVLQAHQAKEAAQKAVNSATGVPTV
Env fusion inh: blocks HIV Env-driven cell-cell fusion; inhibition, % at 12.3 µM; 1.1% of 360,000 active; HeLa-JRFL Env/CEM21 cell fusion, luciferase;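 active means mean replicate inhibition score of at least 50 and every replicate individually at or above 50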;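 further: 0% = plate neutral controls and 100% = maraviroc near 300 nM; one replicate is shown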
Yeast UUG start: yeast start codon fidelity modulation | AID 602363 | 0.13% of 350,000 active | activity score, % at 18.7 µM | S. cerevisiae UUG-firefly luciferase reporter, luminescence/redox ratio;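 active means replicate mean at a twofold rise or more, about +100% in these data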;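 further: firefly luciferase made from a UUG start codon reports start codon fidelity; reporter light over untreated wells divided by growth signal over untreated wells; some hits fall short of that in this replicate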
CSC inhib: blocks cancer stem cells; cancer stem cell-like cells viability, luminescence; 1.1% of 300,000 active; inhibition, % at 7.5 µM;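 active means mean at 75% or more and at least half the replicates too; tested in HMLE shEcad cells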;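 further: 0% = median of negative and 100% = median of positive control wells; the first replicate is given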
Rce1 inhib: blocks yeast Ras-converting enzyme; calls only; yeast membranes, quenched prenylated peptide cleavage fluorescence; 0.27% of 290,000 active; AID 2563;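 active means fall in fluorescence gain of 50% or more versus controls, with final raw signal at or below 3038400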;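 further: plate controls were neutral control wells for no effect and wells lacking membranes for full effect; tested at 10 µM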
MT1-MMP act inh RFP: second read-out of MT1-MMP act inh, no call of its own (marks repeat the call); RFP signal change, %; measured here: RFP expression control read;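 0 = vehicle wells; hits needed this value within 50% of zero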
Active calls of the source: *; & = joins results of further samples; [ ] = another dose, or the depositor's remark.

`O=C(CNC(=O)c1ccccc1F)NCc1ccccn1` gave MT1-MMP act inh 2, Env fusion inh -3, Yeast UUG start -29, CSC inhib -11 and MT1-MMP act inh RFP 0.
`CCCc1nc2c3ccccc3ccn2c1Cc1ccccc1` gave MT1-MMP act inh -1, Env fusion inh -91, Yeast UUG start -3 and MT1-MMP act inh RFP -2.
`CCC(C)Sc1ccc([C@H]2N[C@@](C)(C(=O)OC)[C@H]3C(=O)N(C)C(=O)[C@@H]23)cc1OC` (stereo partly specified) gave MT1-MMP act inh 1, Env fusion inh -2, Yeast UUG start -8, CSC inhib -12, Rce1 inhib inactive and MT1-MMP act inh RFP 6.
For C/C(=N/NC(=O)CN(c1ccccc1)S(=O)(=O)c1ccccc1)c1ccccc1O the results were eIF4H inh 0, MT1-MMP act inh 1, PABP FP inh 8, Env fusion inh 0, Yeast UUG start -31, CSC inhib 28, Rce1 inhib inactive and MT1-MMP act inh RFP -11.
COc1ccc(-n2c(C)cc(/C=C3\SC(=O)NC3=O)c2C)cc1 was read as eIF4H inh -8, MT1-MMP act inh 3, PABP FP inh 6, Env fusion inh -28, Yeast UUG start -9, Rce1 inhib inactive and MT1-MMP act inh RFP 0.
`COc1cccc(N2CN(CCc3ccccc3)CNC2=S)c1` gave eIF4H inh 1, MT1-MMP act inh -2, PABP FP inh 0, Env fusion inh -5, Yeast UUG start -16, CSC inhib 8, Rce1 inhib inactive and MT1-MMP act inh RFP 0.
For CN(c1ccccc1)c1nc(-n2ccnc2)nc(-n2ccnc2)n1 the results were eIF4H inh 3, MT1-MMP act inh 3, PABP FP inh -8, Env fusion inh -76, Yeast UUG start -32, CSC inhib 1, Rce1 inhib inactive and MT1-MMP act inh RFP -7.
COc1ccc(-n2c(Cn3c(=O)sc4ccccc43)nnc2SC)cc1 was read as eIF4H inh -4, MT1-MMP act inh -1, PABP FP inh 4, Env fusion inh -84, Yeast UUG start 13, CSC inhib 3, Rce1 inhib inactive and MT1-MMP act inh RFP 4.
Screening C=CCOc1ccc(C2=NOC(C(=O)Nc3ccc4c(c3)OCCO4)C2)cc1 (stereo unspecified) returned eIF4H inh 6, MT1-MMP act inh 0, PABP FP inh -10, Env fusion inh 21, CSC inhib 0, Rce1 inhib inactive and MT1-MMP act inh RFP 3.
`C#CCNC(=O)C1=C[C@H](C)[C@@H](CCCO)[C@H](OCC)O1` gave eIF4H inh -7, MT1-MMP act inh 0, PABP FP inh -2, Env fusion inh 1[16.7 µM], Yeast UUG start -12&-15, CSC inhib -2, Rce1 inhib inactive and MT1-MMP act inh RFP 6.
S=c1[nH]nc(C2CCCCC2)n1/N=C/c1ccccn1 was read as eIF4H inh -7, MT1-MMP act inh 4, PABP FP inh -7, Env fusion inh 3, Yeast UUG start -8, CSC inhib 1, Rce1 inhib inactive and MT1-MMP act inh RFP 5.
Screening C=CCn1c(N)cc(=O)nc1SCC(=O)Nc1ccc(C)cc1 returned eIF4H inh -5, MT1-MMP act inh -3, PABP FP inh -8, Env fusion inh 3, Yeast UUG start -20, CSC inhib -15, Rce1 inhib inactive and MT1-MMP act inh RFP 4.
`CN(CC(=O)Nc1ccc(Cl)cc1)CC(=O)Nc1cc(Cl)ccc1C#N` gave eIF4H inh 9, MT1-MMP act inh 3, PABP FP inh -1, Yeast UUG start 1, CSC inhib 2, Rce1 inhib inactive and MT1-MMP act inh RFP -3.
For O=c1c2ccccc2oc2nc(-c3cccs3)n(CCc3ccccc3)c(=O)c12 the results were eIF4H inh 0, PABP FP inh 2, CSC inhib -17 and Rce1 inhib inactive.
`CC(=O)Nn1c(-c2ccccc2)cc2ccccc21` gave eIF4H inh -8, MT1-MMP act inh 2, PABP FP inh 3, Yeast UUG start 7, CSC inhib 0, Rce1 inhib inactive and MT1-MMP act inh RFP 4.
For CC(=O)c1ccccc1-c1csc2ncnc(Sc3nnnn3C)c12 the results were MT1-MMP act inh 2, Env fusion inh 8, Yeast UUG start -10, CSC inhib 24 and MT1-MMP act inh RFP -3.
Screening Cc1cc(C(F)(F)F)n2nc(-c3cnn(C)c3C(F)(F)F)c(Br)c2n1 returned eIF4H inh 5, MT1-MMP act inh 5, PABP FP inh -10, Env fusion inh 0, CSC inhib -3, Rce1 inhib inactive and MT1-MMP act inh RFP 2.
O=C(CSc1ccc(-c2ccccn2)nn1)Nc1ccccc1 was read as eIF4H inh -9, MT1-MMP act inh 6, PABP FP inh -6, Yeast UUG start -29, CSC inhib 16, Rce1 inhib inactive and MT1-MMP act inh RFP -3.
`Cn1cccc1C(=O)NC(=O)COC(=O)c1cc([N+](=O)[O-])ccc1Cl` gave eIF4H inh 1, MT1-MMP act inh -3, PABP FP inh -6, Env fusion inh 6, CSC inhib -8, Rce1 inhib inactive and MT1-MMP act inh RFP 0.
CCC(C)(C(=O)NC1CCCC1)N(CC1CCCO1)C(=O)c1ccc2c(c1)OCO2 (stereo unspecified) was read as eIF4H inh -2, MT1-MMP act inh 2, PABP FP inh -10, Env fusion inh -33, CSC inhib 2, Rce1 inhib inactive and MT1-MMP act inh RFP -1.

Continued; it opens with the 2 that closed the last part.
`Cn1cccc1C(=O)NC(=O)COC(=O)c1cc([N+](=O)[O-])ccc1Cl` gave eIF4H inh 1, MT1-MMP act inh -3, PABP FP inh -6, Env fusion inh 6, CSC inhib -8, Rce1 inhib inactive and MT1-MMP act inh RFP 0.
CCC(C)(C(=O)NC1CCCC1)N(CC1CCCO1)C(=O)c1ccc2c(c1)OCO2 (stereo unspecified) was read as eIF4H inh -2, MT1-MMP act inh 2, PABP FP inh -10, Env fusion inh -33, CSC inhib 2, Rce1 inhib inactive and MT1-MMP act inh RFP -1.
`CS(=O)(=O)N(CCc1ccccc1)CC(=O)N1CCN(Cc2ccccc2)CC1` gave eIF4H inh -5, MT1-MMP act inh 5, PABP FP inh 8, Yeast UUG start -20, CSC inhib -11 and MT1-MMP act inh RFP -8.
For Cc1ccc2nc(N3C(=O)C(O)=C(C(=O)c4ccco4)C3c3cccs3)sc2c1 (stereo unspecified) the results were eIF4H inh 22, MT1-MMP act inh 2, PABP FP inh 8, CSC inhib 34, Rce1 inhib inactive and MT1-MMP act inh RFP 7.
For Cn1cc(/C=N/n2cnc3scc(-c4ccccc4)c3c2=O)c2ccccc21 the results were eIF4H inh -6, MT1-MMP act inh 9, PABP FP inh -10, Env fusion inh 26, Yeast UUG start -15, CSC inhib 45, Rce1 inhib inactive and MT1-MMP act inh RFP -11.
O=C(CSc1nnc(CNC(=O)c2cccc(C(F)(F)F)c2)o1)NC1CCCCC1 was read as eIF4H inh -2, MT1-MMP act inh -3, PABP FP inh 4, Env fusion inh -7, Yeast UUG start -3, CSC inhib -3, Rce1 inhib inactive and MT1-MMP act inh RFP 0.
`CCOC(=O)C1(Cc2cccc(OC)c2)CCCN(Cc2nccn2CC)C1` (stereo unspecified) gave eIF4H inh 6, MT1-MMP act inh -8, PABP FP inh -4, Env fusion inh 18, CSC inhib -7, Rce1 inhib inactive and MT1-MMP act inh RFP -2.
For CCOC(=O)C1=C(C)NC(C)=C(C(=O)OCC)C1c1cn(-c2ccccc2)nc1-c1ccco1 the results were eIF4H inh -7, MT1-MMP act inh -3, PABP FP inh -10, CSC inhib -5, Rce1 inhib inactive and MT1-MMP act inh RFP -3.
`CC(=O)Nc1c(O)nc(SCC(=O)Nc2ccc(C(C)=O)cc2)[nH]c1=O` gave eIF4H inh 3, MT1-MMP act inh 4, PABP FP inh 14, Yeast UUG start -20, CSC inhib -8, Rce1 inhib inactive and MT1-MMP act inh RFP 6.
For CCOc1ccc(N2C(=O)/C(=C/c3cccs3)N(CC(=O)OC)C2=S)cc1 the results were eIF4H inh -11, MT1-MMP act inh -1, PABP FP inh -10, Env fusion inh -12, Yeast UUG start -3, CSC inhib -7, Rce1 inhib inactive and MT1-MMP act inh RFP 4.
Cc1cccc2sc(NC(=O)C3CC3)nc12 was read as eIF4H inh 0, MT1-MMP act inh 2, PABP FP inh 8, Env fusion inh -14, Yeast UUG start -20, Rce1 inhib inactive and MT1-MMP act inh RFP 0.
CCCNC(=O)c1cc(C2CCCN(C(=O)c3ccc(OC)cc3)C2)on1 (stereo unspecified) was read as MT1-MMP act inh 1, Env fusion inh 5, Yeast UUG start 0 and MT1-MMP act inh RFP 2.
O=C(CCNS(=O)(=O)c1cccc2nonc12)NC1CCCCC1 was read as eIF4H inh -4, MT1-MMP act inh 1, PABP FP inh -6, Env fusion inh -6, CSC inhib -10 and MT1-MMP act inh RFP 3.
Screening C=CCNC(=O)/C=C/c1c(F)cccc1Cl returned eIF4H inh -1, MT1-MMP act inh -4, PABP FP inh -11, Env fusion inh -29, CSC inhib -3, Rce1 inhib inactive and MT1-MMP act inh RFP 2.
CN1C(=O)c2ccc(NC(=O)CCS(=O)(=O)c3ccccc3)cc2C1=O was read as eIF4H inh -5, MT1-MMP act inh -1, PABP FP inh -15, Env fusion inh -2, CSC inhib -7, Rce1 inhib inactive and MT1-MMP act inh RFP 5.
For CCOc1cc(Br)c(CC(=O)NC2CCCCCC2)cc1OCC the results were eIF4H inh 0, MT1-MMP act inh -9, PABP FP inh 34, Env fusion inh 5, Yeast UUG start -3, Rce1 inhib inactive and MT1-MMP act inh RFP -5.
For O=C(NCC1CC1)[C@@H]1C[C@H]1[C@@H](NP(=O)(c1ccccc1)c1ccccc1)c1ccccc1 the results were eIF4H inh 4, MT1-MMP act inh 1, PABP FP inh 2, Env fusion inh 7, Yeast UUG start -11, CSC inhib -1, Rce1 inhib inactive and MT1-MMP act inh RFP 2.
Screening CC(C(=O)Nc1ccc(O)cc1C(=O)O)N1C(=O)/C(=C\c2cccs2)SC1=S (stereo unspecified) returned eIF4H inh 48, MT1-MMP act inh -2, PABP FP inh 24, Env fusion inh 3, Yeast UUG start -12, CSC inhib 1, Rce1 inhib inactive and MT1-MMP act inh RFP 1.
O=C(COC(=O)C1CC(=O)N(Cc2ccccc2)C1)Nc1ccc(Cl)cc1F (stereo unspecified) was read as eIF4H inh -8, MT1-MMP act inh 2, PABP FP inh -9, Env fusion inh -11, CSC inhib -4, Rce1 inhib inactive and MT1-MMP act inh RFP 5.
Screening COc1ccccc1/C=N/OC(=O)c1ccc(F)cc1 returned eIF4H inh -6, MT1-MMP act inh 1, PABP FP inh -6, Env fusion inh 9, Yeast UUG start -9, CSC inhib -2, Rce1 inhib inactive and MT1-MMP act inh RFP -1.
Cc1cccc(Nc2nc3c(s2)CCCC3)c1 was read as eIF4H inh -7, MT1-MMP act inh 7, PABP FP inh 7, Env fusion inh -56, Yeast UUG start -26, CSC inhib 13, Rce1 inhib inactive and MT1-MMP act inh RFP -6.
CCc1ccccc1NC(=S)N1CCN(c2cccc(OC)c2)CC1 was read as eIF4H inh 3, MT1-MMP act inh 8, PABP FP inh -10, Env fusion inh 13, Yeast UUG start -5, CSC inhib -2, Rce1 inhib inactive and MT1-MMP act inh RFP 2.
For COc1ccc(-c2cc(=O)oc3cc(OC(=O)C4CCCCC4)c(Cl)cc23)cc1 the results were eIF4H inh -4, MT1-MMP act inh -10, PABP FP inh 0, Env fusion inh 66*, CSC inhib 0, Rce1 inhib inactive and MT1-MMP act inh RFP -13.
For COc1ccc(CCN2C(=NC(=O)CC(C)C)SC3CS(=O)(=O)CC32)cc1OC (stereo unspecified) the results were eIF4H inh 6, MT1-MMP act inh -1, PABP FP inh 0, Env fusion inh -3, CSC inhib -3, Rce1 inhib inactive and MT1-MMP act inh RFP 1.
Screening Cc1cccc(C)c1NC(=O)C1(N(Cc2ccco2)C(=O)Cn2nnnc2N)CCCCC1 returned eIF4H inh -3, MT1-MMP act inh 4, PABP FP inh -9, Env fusion inh 6, CSC inhib -12, Rce1 inhib inactive and MT1-MMP act inh RFP 3.
COc1cccc(/C=N/N2CCN(Cc3ccccc3)CC2)c1O was read as eIF4H inh 1, MT1-MMP act inh 1, PABP FP inh 2, Env fusion inh 6, Yeast UUG start -7, CSC inhib -5, Rce1 inhib inactive and MT1-MMP act inh RFP -1.

Screening results as filed in PubChem BioAssay.
